# Compound activity from PubChem BioAssay.
# AF4-AF9 inh: inhibitors of human MLL-AF4/AF9 interaction. P42568. AlphaScreen, biotin-AF4 peptide binding to FLAG-AF9. inhibition, % at 10 µM. 350,000 tested, 0.47% active;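 active = every replicate reaching a set inhibition limit, whatever the replicate mean, cut at about 25% in these data; inconclusive = mean inhibition reaches that limit but some replicates miss it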;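 also: 0% = plate neutral control median and 100% = total signal loss; the record names both 10 and 1 µM as test concentration; the first replicate is given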
# Target sequence (P42568 whole entry, looked up): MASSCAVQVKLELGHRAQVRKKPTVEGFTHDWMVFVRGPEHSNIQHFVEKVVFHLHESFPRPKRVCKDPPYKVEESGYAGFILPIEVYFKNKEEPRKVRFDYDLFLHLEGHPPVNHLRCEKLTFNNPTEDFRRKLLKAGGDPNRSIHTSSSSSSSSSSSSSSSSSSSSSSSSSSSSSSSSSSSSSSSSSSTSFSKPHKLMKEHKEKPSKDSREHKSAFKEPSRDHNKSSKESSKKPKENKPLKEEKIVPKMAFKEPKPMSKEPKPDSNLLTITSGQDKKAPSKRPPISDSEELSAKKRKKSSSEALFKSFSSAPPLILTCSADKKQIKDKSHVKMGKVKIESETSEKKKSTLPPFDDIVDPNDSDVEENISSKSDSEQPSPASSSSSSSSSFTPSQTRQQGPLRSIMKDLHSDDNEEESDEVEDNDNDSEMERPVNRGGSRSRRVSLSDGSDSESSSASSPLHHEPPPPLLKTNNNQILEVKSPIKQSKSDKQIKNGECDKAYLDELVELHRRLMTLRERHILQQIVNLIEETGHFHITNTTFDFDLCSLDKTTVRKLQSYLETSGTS
# RanGTP-Imp inh: disruptors of Ran-importin-beta complex formation – biochemical, FRET, CFP-Ran, YFP-importin-beta, homogeneous, primary screen. cell-free CFP-Ran/YFP-importin-beta FRET ratio. inhibition, % (test concentration not listed). 300,000 tested, 1.1% active. AID 2216;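 active = most replicates above 15%; inconclusive = exactly half above 15%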;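 also: 0% = DMSO wells and 100% = Ran loaded with GDP instead of GTP; wells of about 40 µL received 100 nL stock; the first replicate is given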
# T cruzi repl: T. cruzi replication inhibition | T. cruzi beta-gal in NIH3T3, luminescence, 90 h | AID 1885 | 300,000 tested, 1.4% active | inhibition, % (no concentration beside the values);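 active = mean inhibition across valid replicates above about 55%, limit read from the data; inconclusive = mean below that limit but half or more replicates reach it; inactive = mean below it, under half of replicates reach it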;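 also: signal also drops with host cell toxicity which is not excluded here; 0% = plate median of DMSO wells and 100% = zero luminescence signal; higher percent means less beta-gal luminescence so fewer parasites; stock transfer was 50 nL into about 50 µL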
# Ecoli rRNA inh: selective bacterial rRNA inhibition in E. coli. E. coli WT GFP vs humanized-ribosome RFP mutants, fluorescence, 24 h; stronger effect = lower value; DMSO median 0, no signal -100. GFP signal change (wild-type ribosome), % (concentration not given with the values). 350,000 tested, 1.6% active. AID 720706;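 active = significant combined selectivity score with lowered wild-type GFP, culture density cut under 30%, mutant RFP and density less affected; inactive = any of these conditions unmet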; also: one replicate is shown; some compounds called inactive have numbers as strong as hits
# ALR inh: blocks human ALR sulfhydryl oxidase activity; purified ALR, DTT oxidation, H2O2 HRP-luminol luminescence; inhibition, % (test concentration not listed); 290,000 tested, 3.8% active;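 active = mean and each replicate at 75% or more; inconclusive = only one of the two met; inactive = neither met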;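 also: stock transfer was 7.5 nL into about 7.5 µL; 0% = neutral wells and 100% = wells with inactivated enzyme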
# Target sequence (P55789 whole entry, looked up): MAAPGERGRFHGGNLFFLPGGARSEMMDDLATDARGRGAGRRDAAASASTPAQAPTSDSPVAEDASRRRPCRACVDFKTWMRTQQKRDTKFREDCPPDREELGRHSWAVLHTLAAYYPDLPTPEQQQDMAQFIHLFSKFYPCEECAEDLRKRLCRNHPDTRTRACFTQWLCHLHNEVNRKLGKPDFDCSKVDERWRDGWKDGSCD
# Calb FLC: affects C. albicans growth with fluconazole | C. albicans CaCi-2 (fluconazole-resistant clinical isolate) + fluconazole, Alamar Blue growth, 48 h | growth inhibition, % (no concentration beside the values) | 300,000 tested, 0.57% active;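 active = most replicates above 75%; inconclusive = exactly half above 75%; inactive = most below 75%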;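 also: all wells also contain fluconazole at 8 µg/ml as a sub-toxic cotreatment; 0% = median of DMSO wells and 100% = median of geldanamycin control wells; wells of about 8 µL received 7.5 nL stock; the first replicate is given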
# FGF22 binding: binders of recombinant human FGF22 by thermal shift. 340,000 tested, 1.5% active. SYPRO orange fluorescence; percent of sucrose octasulfate shift, DMSO zero. calls only at 9.99 µM;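 active = melting point raised past a set limit in the mean and every replicate; inconclusive = no clear call; three in four hits are not shown here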
# Target sequence (Q9HCT0 whole entry, looked up): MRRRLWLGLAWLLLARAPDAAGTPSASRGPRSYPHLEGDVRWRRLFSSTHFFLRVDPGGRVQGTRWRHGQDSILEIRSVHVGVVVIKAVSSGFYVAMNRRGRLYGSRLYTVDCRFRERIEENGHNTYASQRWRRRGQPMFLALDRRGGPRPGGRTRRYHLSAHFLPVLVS
# Beta apoptosis: blocks beta cell apoptosis; INS-1E cytokine-induced death, ATP luminescence, 48 h; percent of positive-control rescue, neutral wells zero; protection from apoptosis, % (test concentration not listed); 300,000 tested, 0.8% active; AID 435005;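 active = all replicates at 75% or more, or half of them and the mean; inconclusive = half reach 75% but not the mean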;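 also: 0% = cytokine-treated negative control wells and 100% = positive control rescue; higher means more ATP so stronger rescue from cytokine killing; wells of about 40 µL received 100 nL stock; the first replicate is given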
# Ecoli rRNA inh OD600: also measured in Ecoli rRNA inh; calls as there; OD600 change, %; measured here: OD600 growth;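 optical density of the mix in the first replicate; 0 = DMSO median and -100 = no signal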
# Ecoli rRNA inh RFP: also measured in Ecoli rRNA inh; calls as there; RFP signal change, %; measured here: RFP humanized mutant strains;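 first replicate; 0 = DMSO median and -100 = no signal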
# * = called active by the depositor; i = inactive; ? = inconclusive; . = no result given. Not all compounds are listed; count on the stated rates, not on these rows.
SMILES,AF4-AF9 inh,RanGTP-Imp inh,T cruzi repl,Ecoli rRNA inh,Ecoli rRNA inh OD600,Ecoli rRNA inh RFP,ALR inh,Calb FLC,FGF22 binding,Beta apoptosis
CC(C)(C)c1ccc(C(=O)c2c[nH]c(C(=O)NCCCn3ccnc3)c2)cc1,.,0.3,36,.,.,.,2,6,.,14
CCCCOC(=O)C1=C(C)Nc2ncnn2C1c1ccc(OCC)c(OC)c1 (stereo not given),.,0.9,3,.,.,.,-4,4,.,-6
O=C(CSc1ncccn1)N1CCN(C(=O)CSc2ncccn2)CC1,.,0.5,-5,.,.,.,-10,5,.,-3
Cc1cc(C)cc(N(CCC#N)C(=O)CSc2ncnc3sccc23)c1,0.3,.,.,-6,-23,1.7,-5,.,i,-12
CN1CCN(C(=O)c2ccc3c(=O)n(Cc4ccc(Cl)cc4)c(=S)[nH]c3c2)CC1,.,6.0,-12,.,.,.,12,3,.,4
COc1ccccc1CNC(=O)CCN1C(=O)COc2ccccc21,-7.7,4.1,-4,1,0,-2.0,-15,-3,i,0
Cc1nn(C)cc1C(=O)/C=C/c1ccc([N+](=O)[O-])cc1,1.4,-3.7,-10,5,7,-0.9,84*,21,i,-5
N#CC1=C(N)Oc2n[nH]c(CSc3ccccc3)c2C12C(=O)Nc1ccccc12 (stereo not given),-25,2.2,-2,-5,-1,2.2,-7,1,i,-7
O=C(NNC(=O)c1cccc(C(F)(F)F)c1)c1ccncc1,-4.1,0.2,-4,7,14,0.0,-37,4,i,-3
CCCC12CN3CC(C)(CN(C1)C3c1ccco1)C2=O (stereo not given),-1.4,3.0,-14,13,15,3.0,-5,-4,i,-3

# Fetched by compound from the entries so far:
SMILES,AF4-AF9 inh,RanGTP-Imp inh,T cruzi repl,Ecoli rRNA inh,Ecoli rRNA inh OD600,Ecoli rRNA inh RFP,ALR inh,Calb FLC,FGF22 binding,Beta apoptosis
CC(C)(C)c1ccc(C(=O)c2c[nH]c(C(=O)NCCCn3ccnc3)c2)cc1,.,0.3,36,.,.,.,2,6,.,14
N#CC1=C(N)Oc2n[nH]c(CSc3ccccc3)c2C12C(=O)Nc1ccccc12 (stereo not given),-25,2.2,-2,-5,-1,2.2,-7,1,i,-7
Cc1nn(C)cc1C(=O)/C=C/c1ccc([N+](=O)[O-])cc1,1.4,-3.7,-10,5,7,-0.9,84*,21,i,-5
CCCC12CN3CC(C)(CN(C1)C3c1ccco1)C2=O (stereo not given),-1.4,3.0,-14,13,15,3.0,-5,-4,i,-3

# (next part)
SMILES,AF4-AF9 inh,RanGTP-Imp inh,T cruzi repl,Ecoli rRNA inh,Ecoli rRNA inh OD600,Ecoli rRNA inh RFP,ALR inh,Calb FLC,FGF22 binding,Beta apoptosis
CCCCCC1CC(=O)N(Cc2ccccc2)C(=O)N1 (stereo not given),.,-2.2,2,.,.,.,-10,4,.,4
Cc1ccc(N2CN(CCc3ccccc3)CNC2=S)cc1,-2.5,-0.8,.,6,0,4.1,-10,20,i,0
O=C(N/N=C/c1cccs1)C(O)c1ccccc1 (stereo not given),-4.5,2.7,-16,3,8,-1.5,1,-9,i,-7
CCOC(=O)c1sc(NC(=O)Cc2ccc(F)cc2)nc1C,0.9,-0.2,11,8,3,-2.0,11,1,i,14
[O-]/[N+](=C\c1cccc(Br)c1)c1ccccc1,-2.9,-1.0,-8,-1,0,-0.6,-30,7,i,6
Cc1ccc(/C(O)=C2\C(=O)C(=O)N(C)C2c2cccc([N+](=O)[O-])c2)cc1 (stereo not given),-0.7,-0.2,-6,2,10,0.4,2,2,i,1
CC(C)(C)c1ccc(NC(=O)COC(=O)CCN2C(=O)c3cccc([N+](=O)[O-])c3C2=O)cc1,-1.6,-5.7,-26,2,15,-0.2,.,-7,i,-11
CN1CCN(c2ccccc2NC(=O)COc2ccc(C3CCCCC3)cc2)CC1,20,-0.7,47,-67,-82,-19,-2,40,i,14
CN(c1ccc(C(=O)NC2CCCC2)cc1)S(=O)(=O)c1ccccc1,-1.6,-1.0,-2,0,0,5.6,.,-9,i,-1
NC[C@@H]1O[C@H](O[C@H]2[C@@H](O)[C@H](O[C@@H]3[C@@H](O)[C@H](N)C[C@H](N)[C@H]3O[C@H]3O[C@H](CO)[C@@H](O)[C@H](O)[C@H]3N)O[C@@H]2CO)[C@H](N)[C@@H](O)[C@@H]1O,.,-1.1,-12,.,.,.,-17,.,.,-1

# Of the compounds above, these contain a tert-butyl group:
SMILES,AF4-AF9 inh,RanGTP-Imp inh,T cruzi repl,Ecoli rRNA inh,Ecoli rRNA inh OD600,Ecoli rRNA inh RFP,ALR inh,Calb FLC,FGF22 binding,Beta apoptosis
CC(C)(C)c1ccc(C(=O)c2c[nH]c(C(=O)NCCCn3ccnc3)c2)cc1,.,0.3,36,.,.,.,2,6,.,14
CC(C)(C)c1ccc(NC(=O)COC(=O)CCN2C(=O)c3cccc([N+](=O)[O-])c3C2=O)cc1,-1.6,-5.7,-26,2,15,-0.2,.,-7,i,-11

# The list continues:
SMILES,AF4-AF9 inh,RanGTP-Imp inh,T cruzi repl,Ecoli rRNA inh,Ecoli rRNA inh OD600,Ecoli rRNA inh RFP,ALR inh,Calb FLC,FGF22 binding,Beta apoptosis
CC(=O)N1CCOc2ccc(S(=O)(=O)N3CCCCC3)cc21,-2.5,2.0,-8,14,12,1.7,-5,27,i,1
COc1cc(Br)cc(Br)c1OCC(=O)N/N=C/c1c(C)n(C)n(-c2ccccc2)c1=O,-17,.,.,2,6,-1.7,6,-4,i,-5
Cc1ccc(C(=O)COC(=O)c2cnccn2)cc1,.,-0.1,-10,.,.,.,-10,?,.,-3
Cc1ccc(NC(=O)[C@@H](CC(C)C)NC(=O)[C@@H]2Cc3ccccc3CN2)cc1,1.0,-0.3,11,-5,0,4.5,-9,0,i,1
O=C(Nc1ccc(Cl)cc1)C(c1ccccc1)N(CCO)CCO (stereo not given),.,-0.6,-14,.,.,.,5,0,.,.
CCOC(=O)c1cnc2ccc(Cl)cc2c1NCCN(C)C,.,?,6,.,.,.,-26,-20,.,-2
C=CCNC(=S)N/N=C/c1cn(C)c2ccccc12,0.4,1.7,9,-2,0,-1.0,13,-9,i,6
C=CCn1c(CSCc2ccccc2)nnc1SCC(=O)NCc1ccccc1,.,2.6,2,.,.,.,-23,-4,.,4
CC(C)c1nnc(SCC(=O)NCc2ccco2)n1C,.,-1.0,-6,.,.,.,-8,6,.,0
COc1ccc(C(=O)N/N=C/c2cc3ccccc3[nH]c2=O)cc1,-0.4,-1.2,-15,11,6,-4.1,-1,-10,i,.
N=c1c(S(=O)(=O)c2ccccc2)cc2c(=O)n3ccccc3nc2n1Cc1ccco1,.,85*,16,.,.,.,3,3,.,-21
Cc1cc(NC(=O)CC2Oc3ccccc3NC2=O)ccc1Br (stereo not given),2.1,4.9,-11,11,10,-1.4,5,1,i,-1
CCCCN(C(=O)CNC(=O)c1cccs1)C(C(=O)NC1CCCCC1)c1cccnc1 (stereo not given),.,-1.0,-27,.,.,.,-7,0,.,-2
O=C(C(c1ccccc1)c1ccccc1)N1CCN(Cc2ccccn2)CC1,.,4.4,-6,.,.,.,-6,-18,.,-2
CC(=O)NC12CC3CC(C1)CC(C(=O)OCC(=O)c1ccc4c(c1)OCCO4)(C3)C2,.,-2.2,-7,.,.,.,-45,-6,.,-1
Cc1occc1C(=O)Nc1cccc(/C=C/C(=O)O)c1,.,2.3,-17,-27,-37,-16,-7,-2,.,3
COc1ccccc1N1CCN(c2cc(=O)n(Cc3ccc(F)cc3)c(=O)[nH]2)CC1,1.7,?,-15,0,-11,-0.3,-21,5,i,16
Cc1ccc(CNC(=O)C(CCC(N)=O)NC(=O)OCc2ccccc2)cc1 (stereo not given),.,-4.0,-15,.,.,.,1,-4,.,-4
Cc1cccnc1NC(=O)Cn1nc(-c2ccccc2)oc1=S,.,0.0,-20,.,.,.,46,-3,.,-4
CCOC(=O)C1C(CC)NC(=S)NC1(C)O (stereo not given),0.7,3.3,-17,6,2,-0.8,2,-1,i,.
CN(C)CCC(=O)C(Cc1ccccc1)c1ccccc1 (stereo not given),2.5,0.4,?,5,-16,-2.2,10,-23,i,.
C/C(CC(=O)NCc1ccco1)=N\NC(=O)COc1ccc(C)cc1,-3.8,0.4,-8,8,17,-4.9,3,2,i,-3
O=C(Nc1ccccc1[N+](=O)[O-])C1C(c2ccccc2)=C1c1ccccc1,.,5.7,25,0,-12,-5.2,3,1,.,1
COc1ccc(/C=C/c2nc(C#N)c(NCCN(C)C)o2)cc1OC,3.1,-2.4,20,6,4,2.1,38,-11,i,4
Cc1[nH]n(-c2ccccc2)c(=O)c1/C=N/N1C(=O)c2cccc3cccc(c23)C1=O,2.0,-2.4,-13,-11,-17,-7.4,15,0,i,18
CCCN(CC(=O)Nc1ccccc1C)C(=O)c1cc(C)oc1C,0.0,.,.,.,.,.,-4,.,i,-6
O=C(NCCOC(=O)c1ccc(S(=O)(=O)N2CCOCC2)cc1)c1cccnc1,.,1.4,-11,.,.,.,-31,-6,.,-1
CCOc1ccc(C(CC(=O)O)NC(=O)COc2ccccc2OC)cc1OC (stereo not given),-7.6,-3.9,-24,14,18,5.2,1,-4,i,-1
CCCCN(C)S(=O)(=O)c1ccc(C(=O)N=c2sc3cc(NC(C)=O)ccc3n2C)cc1,.,4.0,13,.,.,.,0,-3,.,-12
CCOc1ccc(NC(=O)C2CCCN(S(=O)(=O)c3ccc4[nH]c(=O)ccc4c3)C2)cc1 (stereo not given),-9.5,-1.3,1,6,8,4.7,-1,0,i,.
NC(CC(=O)NC(c1ccccc1)(c1ccccc1)c1ccccc1)C(=O)O (stereo not given),1.4,-1.6,-10,20,10,1.3,-12,0,i,2
Cc1cc(-c2nn(-c3ccccc3)cc2/C=C2\SC(N)=NC2=O)ccc1OC(C)C,0.5,-1.7,14,8,7,3.7,0,-7,i,-4
CCOC(=O)Cc1csc(NC(=O)CCS(=O)(=O)Cc2ccccc2)n1,.,5.0,-10,5,8,-1.7,-4,18,.,-9
CCOC(=O)C1CCCN(c2nc3ccccc3nc2NS(=O)(=O)c2ccc(C)cc2)C1 (stereo not given),0.9,.,.,-11,-6,-1.5,19,.,i,-5
CNC(=O)c1sc(-c2cccnc2)nc1C,.,-4.7,-9,.,.,.,-10,-13,.,-3
N#Cc1c2c(c(NCCN3CCOCC3)n3c1nc1ccccc13)CCCC2,.,45*,33,.,.,.,7,-13,.,10
Cc1ccc(S(=O)(=O)/N=C2\C=C(Nc3cccc(C(=O)O)c3)C(=O)c3ccccc32)c(C)c1,10,5.9,-10,9,-24,-1.6,17,0,i,95*
CC12CCC(=O)N1C(C(=O)Nc1nnc(SCc3ccc(F)cc3)s1)CS2 (stereo not given),0.1,-2.8,3,-14,-18,-3.1,0,5,i,-7
COc1ccccc1NC(=S)N(CCc1c(C)[nH]c2ccccc12)Cc1cccs1,3.0,?,22,2,3,-1.3,.,-7,i,-2
COc1ccc(-c2cc(C#N)nc(Cl)n2)cc1,-1.6,-3.9,23,4,1,11,16,-6,i,-6
Nc1cc(C(=O)OCC(=O)NCCCc2ccccc2)ccc1Cl,0.1,3.4,5,-11,-17,1.4,5,-11,i,-2
COc1ccc(OCCCC(=O)Nc2cccc([N+](=O)[O-])c2C)cc1,.,1.1,3,.,.,.,3,5,.,-1
